# eIF4H FP inh – inhibitors of RNA binding by human eIF4H; Q15056; actives 0.94% (n = 290,000); inhibition, % at 35 µM; eIF4H fluorescence polarization binding assay;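 active means 50% or more with normal probe brightness, or confirmed in later tests; inconclusive means above 50% with abnormal brightness, or retests that disagree; inactive means below 50% or failed in later tests; about a fifth of its hits are not listed in these tables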;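 further: calls also rest on retests at 20 µM and on dose response follow-up; 0% = protein and probe with vehicle and 100% = probe without protein; strong numbers were not always called active; many hits fall short of the cut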
# Rce1 inh – blocks yeast Ras-converting enzyme | actives 0.27% (n = 290,000) | Q03530 | calls only | AID 2563 | yeast membranes, quenched prenylated peptide cleavage fluorescence;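 active means fall in fluorescence gain of 50% or more versus controls, with final raw signal at or below 3038400; inconclusive means same 50% fall but final raw signal above 3038400; inactive means fall in fluorescence gain under 50%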;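 further: plate controls were neutral control wells for no effect and wells lacking membranes for full effect; tested at 10 µM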
# Target sequence (Q03530 whole entry, looked up): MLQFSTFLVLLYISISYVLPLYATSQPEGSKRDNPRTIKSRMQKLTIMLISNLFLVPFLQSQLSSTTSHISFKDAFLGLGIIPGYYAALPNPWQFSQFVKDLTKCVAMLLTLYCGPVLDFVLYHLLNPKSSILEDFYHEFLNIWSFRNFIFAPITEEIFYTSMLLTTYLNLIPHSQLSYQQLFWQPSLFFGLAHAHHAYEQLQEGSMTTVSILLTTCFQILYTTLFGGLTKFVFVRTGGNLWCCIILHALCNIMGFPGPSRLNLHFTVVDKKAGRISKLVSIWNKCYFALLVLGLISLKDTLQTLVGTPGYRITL
# UUG fidelity – yeast start codon fidelity modulation; actives 0.13% (n = 350,000); S. cerevisiae UUG-firefly luciferase reporter, luminescence/redox ratio; activity score, % at 18.7 µM; AID 602363;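 active means replicate mean at a twofold rise or more, about +100% in these data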;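 further: firefly luciferase made from a UUG start codon reports start codon fidelity; reporter light over untreated wells divided by growth signal over untreated wells; some hits fall short of that in this replicate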
# PABP polyA inh – PABP-poly(A) binding inhibition. P11940. PABP-poly(A) RNA binding, fluorescence polarization. actives 1% (n = 290,000). inhibition, % at 35 µM;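 active means 50% or more with normal probe brightness, or confirmed in later tests; inconclusive means above 50% with abnormal brightness, or retests that disagree; inactive means below 50% or failed in later tests; about a fifth of its hits are not listed in these tables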;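 further: calls also rest on retests at 20 µM and on dose response follow-up; controls were probe without protein and protein plus probe with vehicle; some compounds called inactive have numbers as strong as hits; many hits fall short of the cut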
# MT1-MMP act inh – blocks activation of human MT1-MMP; P50281; GFP/RFP ratio change, % at 20 µM; AID 651647; actives 0.061% (n = 360,000); HT1080 RFP-PRO-GFP cells, GFP/RFP ratio fluorescence, overnight; percent of plate control window, DMSO zero;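 active means GFP/RFP ratio change of at least 30% with cell ATP level not reduced by more than half and red fluorescence within 50% of control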; further: strong numbers were not always called active
#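 Assay system – RFP-PRO-GFP reporter HT1080 cells · Compound dosing – single dose of 20 µM compound, 1% DMSO final · Incubation – overnight compound exposure at 37 °C · Measure – GFP/RFP fluorescence ratio · Benchmarks – DMSO wells and RFP-L50D-GFP cells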
# CSC inhib – cancer stem cell inhibition. actives 1.1% (n = 300,000). AID 2717. cancer stem cell-like cells viability, luminescence. inhibition, % at 7.5 µM;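 active means mean at 75% or more and at least half the replicates too; inconclusive means mean and replicates disagree; tested in HMLE shEcad cells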;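 further: 0% = median of negative and 100% = median of positive control wells; the first replicate is given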
# Env fusion inh – blocks HIV Env-driven cell-cell fusion. AID 651610. inhibition, % at 12.3 µM. actives 1.1% (n = 360,000). HeLa-JRFL Env/CEM21 cell fusion, luciferase;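 active means mean replicate inhibition score of at least 50 and every replicate individually at or above 50; inconclusive means only one of the two criteria met; inactive means mean below 50 and not all replicates reaching 50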;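 further: 0% = plate neutral controls and 100% = maraviroc near 300 nM; one replicate is shown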
# MT1-MMP act inh RFP – recorded beside MT1-MMP act inh, whose call it bears; RFP signal change, %; measured here: RFP expression control read;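 0 = vehicle wells; hits needed this value within 50% of zero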
# * hit, by the source's call; i = inactive; u = inconclusive; x = not tested or not shown.
# Values run as follows: eIF4H FP inh, Rce1 inh, UUG fidelity, PABP polyA inh, MT1-MMP act inh, MT1-MMP act inh RFP, CSC inhib, Env fusion inh
CCOc1ccc(NC(=S)N(CCN2CCOCC2)Cc2cc3cc4c(cc3[nH]c2=O)OCCO4)cc1
  2, i, -7, -11, 1, 1, -4, -1
CCCCN(C(=O)/C=C/c1ccco1)c1c(N)n(CC(C)C)c(=O)[nH]c1=O
  0, i, x, -4, -2, 4, -18, -3
Cc1cccc(N2C(=O)c3ccc(C(=O)Nc4ccccn4)cc3C2=O)c1
  -6, i, -15, 13, -1, 3, 1, -2
CC(=O)N1CCc2cc(Br)cc(S(=O)(=O)NCCN3CCCCC3C)c21 (configuration not stated)
  5, i, -6, 0, -1, 0, 1, x
O=C(COC(=O)/C=C/c1ccc(S(=O)(=O)N2CCOCC2)cc1)NCc1ccc(Cl)cc1
  -7, i, -13, -8, 2, -3, 13, -8
Cc1noc(C)c1S(=O)(=O)N1CCCC(C(=O)Nc2cccnc2)C1 (configuration not stated)
  -8, i, 614*, 10, -2, -14, 5, x
O=C(O/N=C1\CCCc2ccccc21)C1CC1
  7, i, -3, 32, 7, 7, x, 6
O=[N+]([O-])c1cc2c(cc1/C=N/n1cnnc1)OCO2
  25, i, x, 1, -1, 0, 4, 7
COc1ccc(C(=O)N/C(=C\c2cc(OC)c(OC)cc2[N+](=O)[O-])C(=O)NCCO)cc1
  0, i, x, -4, -4, 4, -13, -6
CC(C)(C)c1ccc(-c2nnc3sc(-c4ccncc4)nn23)cc1
  11, x, -4, 0, 3, -12, -2, -141
CC(NC(=O)COC(=O)C1CCC1)c1ccccc1 (configuration not stated)
  x, i, -25, x, 3, 5, -7, 6
CC(=O)OCC(=O)[C@H]1CC[C@H]2[C@@H]3CCC4=CC(=O)CC[C@]4(C)[C@H]3CC[C@]12C
  -9, i, -16, -7, 0, -1, -2, x
O=C(Nc1ccccc1C(F)(F)F)c1cc(S(=O)(=O)N2CCOCC2)ccc1F
  -6, i, 4, -2, 4, -1, -5, -33
CCCN(CC1COc2ccccc2O1)C(=S)Nc1ccc(C)cc1 (configuration not stated)
  3, i, -18, 2, 1, -2, x, -1
CCN(CC(=O)Nc1ccc(NC(C)=O)cc1)C(=O)Cc1ccc(Cl)c(Cl)c1
  -15, i, -8, u, -2, -3, x, -16
CCc1ccc(Nc2nc(C)cc(C)c2C(N)=O)cc1
  -20, i, -10, 0, 1, -2, -7, -2
Cc1ccc(CN2CCN(Cc3cn[nH]c3-c3cccc(F)c3)CC2CCO)o1 (configuration not stated)
  -13, i, x, 12, 3, 2, -7, -5
COc1cc(-c2coc3c(C(=O)NCc4ccccc4)cccc23)ccc1O
  x, x, -5, x, 3, -10, x, 1
COc1ccc(NC(=O)C(c2ccc(OC)cc2)N(Cc2ccco2)C(=O)CC2NC(=O)NC2=O)cc1 (configuration not stated)
  7, i, 21, -4, 2, 3, -16, 1
CC(C)CN(C(=O)CN1CCN(S(=O)(=O)c2ccc3ccccc3c2)CC1)c1c(N)n(CC(C)C)c(=O)[nH]c1=O
  4, i, -6, 2, 4, -5, -18, x
COc1ccccc1C(=O)OCC(=O)Nc1ccccc1OC(F)F
  -5, i, x, -5, 0, 3, -21, 3
COc1ccc(-n2c(O)c(C=Nc3ccccc3)c3ccccc3c2=O)cc1
  5, i, x, 2, 3, 2, -6, -2
CCSc1nnc(NC(=O)CSc2nnc(Cc3cccn3C)n2-c2ccc(F)cc2)s1
  6, i, -10, -4, -5, 0, x, x
Cc1cnccc1CNC(=O)C1CCC(=O)N(Cc2ccc(Cl)cc2)C1 (configuration not stated)
  -8, i, -1, 0, 0, 3, -11, 7
COc1ccc(Cl)cc1N(C)C(=O)CCc1nc(-c2ccc(C)cc2)no1
  -5, i, -13, 1, -8, -18, -7, x
CC1(C(=O)NCc2ccccn2)CCN1C(=O)Cc1ccc(Cl)cc1Cl (configuration not stated)
  x, x, -16, x, 3, 6, x, 29
O=C(Nc1cc([N+](=O)[O-])ccc1F)c1cccs1
  11, i, x, 0, -4, -1, 1, -29
Cc1ccccc1NC(=S)NC(NC(=O)c1ccco1)C(Cl)(Cl)Cl (configuration not stated)
  11, i, -26, 27, -5, -1, 5, x
Nc1ccccc1Nc1nc2ccccc2[nH]1
  1, i, -22, -2, 5, 1, 6, 14
Cc1ccc(O)c(NC(=S)NC(=O)c2ccc(-c3ccc(Cl)cc3)o2)c1
  x, i, x, x, 4, -2, -2, x
O=C(COC(=O)COc1cccc2ccccc12)NCC(F)(F)F
  -1, i, x, 0, -3, 0, -7, 10
Cc1cc(=O)oc2cc(OC(C(=O)O)c3ccccc3)ccc12 (configuration not stated)
  3, i, -1, 15, x, x, -8, -9
COc1cc(/C=C/C(=O)O)cc(S(=O)(=O)NNC(=O)c2cc(C)oc2C)c1OC
  x, x, -4, x, -8, 0, 4, -4
O=C(CN(CC1CCCO1)C(=O)CCC(=O)Nc1ccccn1)NCc1ccccc1 (configuration not stated)
  -3, i, -11, 2, 2, 0, -16, -22
CCc1ccc(CN(C(=O)c2cccs2)C2CCS(=O)(=O)C2)cc1 (configuration not stated)
  -8, i, -20, -3, -1, 0, -17, 6
Cc1ccc(-n2nnnc2Sc2nc([N+](=O)[O-])nn2C)c(C)c1
  x, i, -4, x, -3, -2, -13, x
CN(C)c1cccc(C(=O)N2CCCC(C(=O)c3cc(F)ccc3F)C2)c1 (configuration not stated)
  -17, i, x, 0, -3, -3, 1, 14
Cc1nsc2nc3c(F)c(F)c(F)c(F)c3cc12
  -18, i, -16, 10, -6, -4, 7, -11
CC(C)C[C@H]1CNC(=O)C(=O)N1C[C@H]1CCCN1C[C@H](CC(C)C)N1C[C@H](Cc2ccccc2)N(CCc2ccccc2)C(=O)C1=O
  x, x, 28, x, -3, -2, x, -33
COc1ccc(C(=O)N/C(=C\c2ccco2)C(=O)NCCN2CCOCC2)cc1
  0, i, -20, -2, 1, 3, 3, x

# Full records, quoted from the list. Order of screens: eIF4H FP inh | Rce1 inh | UUG fidelity | PABP polyA inh | MT1-MMP act inh | MT1-MMP act inh RFP | CSC inhib | Env fusion inh
# Results for COc1ccc(C(=O)N/C(=C\c2ccco2)C(=O)NCCN2CCOCC2)cc1 : 0 | i | -20 | -2 | 1 | 3 | 3 | x
# Results for Cc1cc(=O)oc2cc(OC(C(=O)O)c3ccccc3)ccc12 (configuration not stated) : 3 | i | -1 | 15 | x | x | -8 | -9
# Results for CCc1ccc(CN(C(=O)c2cccs2)C2CCS(=O)(=O)C2)cc1 (configuration not stated) : -8 | i | -20 | -3 | -1 | 0 | -17 | 6

# More structures.
# Values run as follows: eIF4H FP inh, Rce1 inh, UUG fidelity, PABP polyA inh, MT1-MMP act inh, MT1-MMP act inh RFP, CSC inhib, Env fusion inh
CC(=O)Nc1ccc(NC(=O)CSc2nnc3ccc(-c4cccnc4)nn23)cc1
  x, i, x, x, 3, 4, -8, 3
Cc1ccc(NC(=O)c2ccc(F)c(S(=O)(=O)N3CCOCC3)c2)cc1F
  -15, i, 3, 2, 11, -11, -5, 43
CCCCOc1ccc(C(=O)N2CC(C)OC(C)C2)cc1 (configuration not stated)
  -9, i, -13, 2, 1, -1, x, x
Cc1cccc(C)c1NC(=O)CSc1nnc(-c2ccoc2C)n1C
  -7, i, -12, -4, -5, 0, -7, x
Cn1c(N)c(C(=O)COC(=O)c2ccc(-c3ccccc3)cc2)c(=O)n(C)c1=O
  x, x, -12, x, 6, -6, -19, 5
COc1cc(C=Nc2cccc([N+](=O)[O-])c2C)ccc1OC(C)=O
  -4, i, -23, 12, 6, 8, -9, 4
CC(C)(C)SCCNC(=O)/C=C/c1ccc([N+](=O)[O-])cc1
  -5, i, x, 8, -1, -2, -24, -13
O=C(Cc1ccc([N+](=O)[O-])cc1)N1CCCCCC1
  3, i, x, 9, 10, 7, 2, -63
Cc1cc(F)ccc1NCc1cccnc1
  -6, x, -11, 4, 1, 5, -2, -16
CCc1ccc(C(=O)c2oc3nc(C)cc(C)c3c2N)cc1
  -6, i, 4, -8, -3, 1, -3, x
Cc1ccc(NC(=O)CN2C(=O)NC3(CCC(C)CC3)C2=O)c(Cl)c1 (configuration not stated)
  0, i, -13, -5, 0, 4, -8, -12
COc1ccc(CCN2C(=O)NC(NS(=O)(=O)c3ccc(N)cc3)(C(F)(F)F)C2=O)cc1OC (configuration not stated)
  3, i, x, 0, 3, 3, -34, -13
CCc1ccccc1NC(=O)Cn1nnc(C(=O)NCc2cccs2)c1N
  -2, i, x, 12, -5, -11, 34, -16
Cc1cc(C)c(NC(=O)CN2CCN(C)CC2)c(C)c1
  -15, i, -15, -8, 0, 1, 9, 8
Cc1ccc(S(=O)(=O)Nc2c(C)cc(C)nc2Cl)cc1
  -6, i, -9, 9, -4, -6, -3, 10
COc1cc(/C=N/NC(=O)c2ccccc2)ccc1OS(=O)(=O)c1ccccc1
  1, i, x, 0, 6, -2, 6, 2
COc1ccc2nc(Nc3nc(CSc4nnc(C)s4)cc(=O)[nH]3)nc(C)c2c1
  -3, i, x, 2, x, x, -6, x
COc1ccc2c(c1)CC/C(=C\C=C\c1ccccc1)C2=O
  0, i, -23, 4, -4, 6, -4, -12
COc1ccc(/C=C2\CCC(C3CCCC3)C2=O)cc1 (configuration not stated)
  -1, i, -26, 1, -7, -4, -3, -37
CCOc1ccc(CN2CCNC(=O)C2CC(=O)NC2CCCCCC2)cc1 (configuration not stated)
  -7, i, 9, -10, -1, 1, -21, -7
CCOc1ccc(NC(=O)CC2C(=O)N(c3ccccc3)C(=O)N2Cc2ccco2)cc1 (configuration not stated)
  9, i, -11, 7, 3, -3, -8, 3
CCOC(=O)c1ccc(NC(=O)CCS(=O)(=O)c2ccc(Br)s2)cc1
  4, i, -3, 6, 5, -1, -2, -25
Cc1cc(C)c[n+](-c2nc3ccccc3nc2[N-]S(=O)(=O)c2ccc(Cl)cc2)c1
  u, i, -12, 8, -15, 3, -6, 20
Cc1cc(C)n2ncc(C(=O)NCc3ccc(Cl)cc3)c2n1
  -19, i, -11, -7, -2, -5, -1, 4
COc1ccc(S(=O)(=O)N2CCC(C(=O)N[C@@H](C)C(=O)NCc3ccccn3)CC2)cc1
  x, x, -1, x, 6, -1, x, 1
CCOC(=O)c1cccc(NC(=O)CSc2nncn2-c2ccccn2)c1
  -1, i, -18, 0, -1, 0, -8, -1
COC(=O)c1cccc(S(=O)(=O)N2CCN(c3nc4ccccc4s3)CC2)c1
  0, i, -12, -1, 3, 2, -14, -8
COCCC(=O)N1CCC(Oc2ccc(C(=O)N3CCCCC3COC)cc2)CC1 (configuration not stated)
  -10, i, -2, 8, 0, 3, 4, 1
CC(=O)CCCCn1cnc2c1c(=O)n(C)c(=O)n2C
  -10, i, x, -3, x, x, -11, x
O=c1c2cc3ccccc3n2cnn1Cc1ccccc1F
  2, i, x, -7, 5, 2, -11, x
O=C(COC(=O)CCSc1ccccc1Cl)NCc1ccco1
  -5, i, x, -8, 2, 3, -7, 12
O=C(Nc1cccc(Cl)c1)c1cnccn1
  -11, i, -12, -11, -2, -1, -13, -20
O=C1c2cccc(OCC(=O)N3CCCc4ccccc43)c2CCN1Cc1ccccc1
  0, i, x, -16, 3, -1, 88*, 11
CC(=O)c1sc(NC(=O)C2CCN(C(=O)c3ccccc3C)CC2)nc1-c1ccccc1
  x, i, 15, x, 0, -17, 22, 50
COc1cc(/C=N/NC(=O)c2cnccn2)cc(OC)c1OC
  -3, i, -18, -11, 3, 1, 0, x
CN(C)CCNc1ncnc2c1ncn2[C@H]1CN(C)C[C@@H](CO)O1
  x, x, -9, x, 1, 7, x, -20
CC(C)CC(N)c1csc(NC(=O)Nc2ccccc2-c2ccccc2)n1 (configuration not stated)
  x, x, 2, x, -5, -4, x, -9

# High-throughput results: PubChem BioAssay, several laboratories

# The list is partial, so the mix of outcomes need not match the whole.
